# D2 PAM: positive allosteric modulators of human D2 dopamine receptor; AID 624464; DiscoveRx D2 beta-arrestin cells, luminescence, 90 min; 100% = 57 uM dopamine signal; potentiation, % (test concentration not listed); P14416; 360,000 compounds, 0.23% hits; active = potentiation of 50% or more; inconclusive = 30% to 50%; inactive = 30% or less;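 further: compound concentration not given in the record; tested on top of an EC20 dose of dopamine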
#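 PathHunter beta-arrestin assay in DiscoveRx D2 cells. Compounds were added with an EC20 of dopamine (50 nM final) for 90 min at 37 deg C. Luminescence was read 1 h after detection reagent, with 57 uM dopamine as the EC100 control.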
# D2 agonist: human D2 receptor agonism in beta-arrestin assay; P14416; DiscoveRx PathHunter D2 beta-arrestin, luminescence, 90 min; 100% = 57 uM dopamine signal; activation, % (concentration not given with the values); 360,000 compounds, 0.084% hits; AID 624465; in the data active = activation above about 40%; inconclusive = about 15% to 40%; inactive = below about 15%; further: the text of the record calls up to 30% inactive
#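 Agonist mode: compounds alone added to overnight-plated D2 PathHunter cells for 90 min at 37 C, with 57 uM final dopamine (EC100) defining full response. Beta-arrestin recruitment detected by chemiluminescent reagent, read after 1 h at ambient temperature.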
# gsp antag: antagonists of gsp mutant (McCune-Albright syndrome). gsp-mutant cells, cAMP HTRF, 30 min; control for the full effect not named in the record. Potency, µM (doses to about 76.9 µM), for the others: at the top dose activity change, negative = inhibition, usual class: inhibitors. 340,000 compounds, 0.4% hits; active = falling curve of any shape with a large fitted effect; inconclusive = falling curve, mostly with a smaller effect; inactive = flat or rising curve; cell line not stated here;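 further: intracellular cAMP measured with PDE inhibitor Ro 20-1724 present during compound exposure; potency means the concentration at half of the fitted maximal effect; on the % scale 0 is the no-effect control and ±100 the full control effect; nearly all actives have a fitted effect of over 65% in size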
#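 HTRF cAMP read-out (cAMP-d2 plus anti-cAMP antibody-K in lysis buffer, 30 min RT). Before lysis, cells are exposed to compounds with […] for 30 min at 37C in DPBS containing Ca/Mg, BSA and Tween 20.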
# CtBP-E1A inh: blocks the CtBP interaction with E1A | AlphaScreen GST-E1A/His-CtBP binding, 1536-well; active compounds read low; control for the full effect not named in the record | AID 651724 | 340,000 compounds, 0.49% hits | activity change, % (no concentration beside the values); in the data active means activity change below about -65%; inconclusive means about -30% to -65%; inactive means above about -30%; further: on the % scale 0 is the no-effect control and ±100 the full control effect
#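 GST-E1A and His-tagged CtBP (125 nM each as 5X stock) were preincubated with pin-transferred compound for 2 h at 37 °C in the dark, then glutathione donor and nickel acceptor beads were added for 1 h before AlphaScreen reading.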
# gsp agonist: activates gsp, the McCune-Albright syndrome mutation; gsp mutant cells, cAMP HTRF, 30 min; control for the full effect not named in the record; Potency, µM (highest dose often 76.9 µM), for the others: at the top dose activation (cAMP increase), hits mostly activators; 340,000 compounds, 0.13% hits; AID 624287; active = well fitted activation curve with a large enough effect; inconclusive = small, poorly fitted or top-dose-only effect, or another doubt; inactive = no such curve, though single readings can be large or run the other way; cell line not stated here;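 further: phosphodiesterase inhibitor Ro 20-1724 added with compounds to block cAMP breakdown; potency means the concentration at half of the fitted maximal effect; nearly all actives have a fitted effect of over 60% in size; about a fifth of the inactives were tested at one dose only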
#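 Cells stably selected in G418 were plated at 2000/well, grown 16-24 hr, then given compounds in DMSO with the PDE inhibitor […] (300 uM solution added) for 30 min at 37C; cAMP was read by HTRF.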
# Six1-Eya2 inh: Six1/Eya2 interaction inhibition; activity change, % (concentration not given with the values); 360,000 compounds, 0.56% hits; Q15475+O00167; AlphaScreen GST-Six1/His-Eya2 binding, biochemical; active compounds read low; control for the full effect not named in the record; AID 651725; in the data active = activity change below about -65%; inconclusive = about -30% to -65%; inactive = above about -30%; further: on the % scale 0 is the no-effect control and ±100 the full control effect
# Target sequence (O00167 whole entry, looked up): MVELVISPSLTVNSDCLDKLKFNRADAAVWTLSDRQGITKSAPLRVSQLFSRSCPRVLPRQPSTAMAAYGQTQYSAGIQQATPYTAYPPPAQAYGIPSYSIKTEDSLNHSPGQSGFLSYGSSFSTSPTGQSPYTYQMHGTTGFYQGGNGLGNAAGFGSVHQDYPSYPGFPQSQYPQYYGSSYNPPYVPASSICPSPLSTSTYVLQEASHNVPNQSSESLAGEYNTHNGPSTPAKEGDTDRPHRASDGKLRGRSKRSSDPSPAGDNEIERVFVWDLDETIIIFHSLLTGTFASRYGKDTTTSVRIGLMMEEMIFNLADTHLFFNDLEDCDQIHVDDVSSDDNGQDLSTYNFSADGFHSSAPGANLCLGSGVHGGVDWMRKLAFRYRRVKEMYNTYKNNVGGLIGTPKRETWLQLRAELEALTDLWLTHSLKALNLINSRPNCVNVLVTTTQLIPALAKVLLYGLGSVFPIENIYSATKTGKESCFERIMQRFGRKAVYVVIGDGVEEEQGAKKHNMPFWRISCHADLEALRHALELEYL
# Target sequence (Q15475 whole entry, looked up): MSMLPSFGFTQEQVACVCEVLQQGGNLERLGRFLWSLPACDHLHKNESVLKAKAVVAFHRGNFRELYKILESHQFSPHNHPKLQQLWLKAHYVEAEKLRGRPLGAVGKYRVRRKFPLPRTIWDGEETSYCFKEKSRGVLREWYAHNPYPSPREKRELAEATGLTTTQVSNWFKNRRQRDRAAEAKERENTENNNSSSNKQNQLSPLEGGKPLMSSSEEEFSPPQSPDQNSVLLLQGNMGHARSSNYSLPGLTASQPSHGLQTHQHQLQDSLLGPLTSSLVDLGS
#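 AlphaScreen luminescence read after one hour at 37 °C in darkness. Pin-transferred compounds met GST-Six1 and His-Eya2 protein (5X stock 250 nM/500 nM) plus glutathione donor and Ni-chelate acceptor beads (5X, 50 ug/mL).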
# Active calls of the source: *; ? = inconclusive; nt = no result given; [ ] = another dose, or the depositor's remark.
item	Compound	D2 PAM	D2 agonist	gsp antag
1	COc1ccc(-c2nc[nH]c2[N+](=O)[O-])cc1	-0.8	-2.9	10.6%
2	Cc1ccc(Sc2ncccc2/C=N/O)cc1	1.6	2.0	-6.4%
3	Nc1nc(N=Nc2ccc(O)cc2)cc(=O)[nH]1	-35.2	-14.3	nt
4	Cc1ccc(-n2cccn2)cc1	14.5	-1.0	22.6%
5	N#C/C(=C\c1cccs1)Sc1nc2ccccc2s1	10.3	-4.4	-6.1%
6	CCOC(=O)c1ccc(NC(=O)Oc2ccccc2)cc1	-3.6	0.2	-1.0%
7	COc1ccc(C(=O)O)cc1N1C(=O)Nc2ccccc2N1O	-3.7	-5.3	-4.3%
8	COc1cccc(NC(=O)C2CCCN2C(=O)Nc2cccc(F)c2)c1 (stereo not given)	2.9	-1.6	9.7%
9	CC1Cc2ccccc2N1CC(=O)Nc1ccc2c(c1)OCO2 (stereo not given)	-13.1	-1.4	-2.1%
10	CCc1noc(C)c1C(=O)NCCc1ccc(F)cc1	-15.3	-9.7	4.2%

item	CtBP-E1A inh	gsp agonist	Six1-Eya2 inh
1	8.0	2.6%[15.4 µM]	13.0
2	-1.8	-14.4%	-2.6
3	-18.3	3.5%	?
4	15.7	-0.3%[15.4 µM]	-4.2
5	-16.7	-28.6%	7.6
6	-1.1	-1.8%	2.6
7	nt	3.9%	-0.9
8	-1.2	8.9%	2.6
9	-19.3	-26.2%	-24.4
10	2.7	7.5%[15.4 µM]	-5.6

item	Compound	D2 PAM	D2 agonist	gsp antag
11	COc1cccc(COc2ccc(N(C)S(=O)(=O)c3ccccc3)cc2)c1	8.7	0.6	-6.5%
12	Cc1noc(C)c1-c1ccc(C(=O)NCc2cccnc2)c2occc12	-5.8	6.4	nt
13	Cc1ccc(NS(=O)(=O)c2cc(C(=O)O)ccc2Cl)cc1	16.0	-0.4	-13.5%
14	Cc1c(CC(=O)N[C@@H](C)C(=O)O)c(=O)oc2cc3occ(-c4ccccc4)c3cc12	-7.5	-0.9	-5.0%
15	Cc1cc(NC(=O)c2ccccc2Cl)ccc1NC(=O)c1ccccc1Cl	-1.3	-5.5	5.0%
16	CN(CCC#N)C(=O)CSc1ncnc2sc(-c3ccccc3)cc12	-11.5	-3.4	-31.6%
17	COc1ccc(NC(=O)C2CC(=O)NC3=C2C(=O)CC(C)(C)C3)cc1 (stereo not given)	-3.7	0.6	3.5%
18	CC1=C(C(=O)NCc2ccccc2)C(c2cccs2)NC(=S)N1 (stereo not given)	-2.1	2.7	4.5%
19	c1cncc(-c2nnc(SCc3cccc4ccccc34)o2)c1	-7.7	-3.0	2.7%
20	CCCCN(C(=O)COC(=O)COc1c(C)cc(C)cc1C)c1c(N)n(CCC)c(=O)[nH]c1=O	-13.0	-2.2	4.6%

item	CtBP-E1A inh	gsp agonist	Six1-Eya2 inh
11	11.6	8.9%[15.4 µM]	34.0
12	-9.5	nt	-14.0
13	2.8	-21.1%	4.0
14	nt	4.9%	-69.3*
15	4.0	1.5%	-3.0
16	-9.3	-6.9%	0.6
17	1.6	6.6%	0.9
18	-0.5	-2.8%	13.2
19	5.5	-72.4%[inhibitor]	1.9
20	-0.2	56.9%[15.4 µM]	2.1

# Entries 1 to 14 of the list above:
item	Compound	D2 PAM	D2 agonist	gsp antag
1	COc1ccc(-c2nc[nH]c2[N+](=O)[O-])cc1	-0.8	-2.9	10.6%
2	Cc1ccc(Sc2ncccc2/C=N/O)cc1	1.6	2.0	-6.4%
3	Nc1nc(N=Nc2ccc(O)cc2)cc(=O)[nH]1	-35.2	-14.3	nt
4	Cc1ccc(-n2cccn2)cc1	14.5	-1.0	22.6%
5	N#C/C(=C\c1cccs1)Sc1nc2ccccc2s1	10.3	-4.4	-6.1%
6	CCOC(=O)c1ccc(NC(=O)Oc2ccccc2)cc1	-3.6	0.2	-1.0%
7	COc1ccc(C(=O)O)cc1N1C(=O)Nc2ccccc2N1O	-3.7	-5.3	-4.3%
8	COc1cccc(NC(=O)C2CCCN2C(=O)Nc2cccc(F)c2)c1 (stereo not given)	2.9	-1.6	9.7%
9	CC1Cc2ccccc2N1CC(=O)Nc1ccc2c(c1)OCO2 (stereo not given)	-13.1	-1.4	-2.1%
10	CCc1noc(C)c1C(=O)NCCc1ccc(F)cc1	-15.3	-9.7	4.2%
11	COc1cccc(COc2ccc(N(C)S(=O)(=O)c3ccccc3)cc2)c1	8.7	0.6	-6.5%
12	Cc1noc(C)c1-c1ccc(C(=O)NCc2cccnc2)c2occc12	-5.8	6.4	nt

item	CtBP-E1A inh	gsp agonist	Six1-Eya2 inh
1	8.0	2.6%[15.4 µM]	13.0
2	-1.8	-14.4%	-2.6
3	-18.3	3.5%	?
4	15.7	-0.3%[15.4 µM]	-4.2
5	-16.7	-28.6%	7.6
6	-1.1	-1.8%	2.6
7	nt	3.9%	-0.9
8	-1.2	8.9%	2.6
9	-19.3	-26.2%	-24.4
10	2.7	7.5%[15.4 µM]	-5.6
11	11.6	8.9%[15.4 µM]	34.0
12	-9.5	nt	-14.0

item	Compound	D2 PAM	D2 agonist	gsp antag
13	Cc1ccc(NS(=O)(=O)c2cc(C(=O)O)ccc2Cl)cc1	16.0	-0.4	-13.5%
14	Cc1c(CC(=O)N[C@@H](C)C(=O)O)c(=O)oc2cc3occ(-c4ccccc4)c3cc12	-7.5	-0.9	-5.0%

item	CtBP-E1A inh	gsp agonist	Six1-Eya2 inh
13	2.8	-21.1%	4.0
14	nt	4.9%	-69.3*

# The list goes on:
item	Compound	D2 PAM	D2 agonist	gsp antag
21	O=C(COC(=O)c1ccco1)Nc1ccc2c(c1)OCO2	-11.2	-3.3	1.8%
22	Nc1ncnc2c1ncn2[C@@H]1O[C@H](C(=O)N2CCC[C@@H]2C(=O)OCc2ccccc2)[C@@H](O)[C@H]1O	-8.1	-4.1	nt
23	CC(=O)N1CCSc2ccc(S(=O)(=O)NCCc3cccc(C)c3)cc21	-7.1	-0.7	-5.0%
24	Cc1c(C(=O)Oc2cc(N)n(S(C)(=O)=O)n2)cccc1[N+](=O)[O-]	-6.0	-8.1	9.5%
25	Cc1ccc2cc(CN(Cc3ccccc3)Cc3nnnn3C3CCCC3)c(=O)[nH]c2c1	-16.9	-3.8	-19.4%
26	Cc1occc1C(=O)Nc1ccc([N+](=O)[O-])cc1Br	-16.8	-0.2	-65.7%
27	c1ccc(-c2csc(-c3cccnc3)n2)cc1	-7.7	-3.4	3.2%
28	O=C(Oc1cccc(NC(=O)c2ccco2)c1)c1cccc(S(=O)(=O)N2CCCC2)c1	-7.7	-1.0	-17.2%
29	CC(=O)NCCNc1nc2cc(-c3cc(F)ccc3C)sc2c(=O)n1C	-9.3	-2.5	nt
30	CC(Sc1nc2ccccc2s1)C(=O)Nc1nnc(C(C)C)s1 (stereo not given)	-0.9	-4.7	-7.3%
31	CC(=O)Nc1nc2nc(-c3ccccc3)cc(-c3ccccc3)n2n1	10.3	-5.6	-13.8%
32	CC1Nc2ncnc(N3CCN(c4ccccc4)CC3)c2N(Cc2ccc(Br)cc2)C1=O (stereo not given)	-51.5	-15.3	-16.5%
33	O=C(Cn1nc(C(=O)O)c2ccccc2c1=O)Nc1cc(Cl)cc(Cl)c1	-5.2	-6.6	-11.9%

item	CtBP-E1A inh	gsp agonist	Six1-Eya2 inh
21	5.6	?	-2.6
22	0.8	nt	6.9
23	-0.3	4.6%	-2.7
24	-6.1	5.2%[15.4 µM]	-20.4
25	8.5	-28.4%	-12.8
26	0.0	-0.1%	11.9
27	-5.6	-2.0%[15.4 µM]	-1.8
28	-22.0	-20.6%	-15.0
29	-1.7	nt	-3.3
30	-1.8	-19.3%	1.7
31	-2.1	0.8%	-1.4
32	-21.6	12.5%	-10.5
33	-13.5	9.9%[15.4 µM]	7.8
